# Screening results as filed in PubChem BioAssay.
# NPYLR7 ag: mosquito NPYLR7 agonism; HEK293T NPYLR7/Galpha15, GCaMP6s calcium fluorescence; activation, % at 10 µM; hit rate 0.15% among 270,000; in the data active = activation above about 40%;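 note: 0% = vehicle and 100% = reference agonist at the receptor; some compounds past the cut are filed as inactive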
# NPYLR7 ag max-min: second read-out of NPYLR7 ag, no call of its own (marks repeat the call); activation, %; measured here: Max-Min RFU normalised activation; some inactives read as strong as hits;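 span of the calcium signal over five minutes; 0% = vehicle and 100% = native peptide agonist; compound fluorescence can raise it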
# An asterisk follows results filed as active; & = joins results of further samples.
# Below each SMILES: NPYLR7 ag	NPYLR7 ag max-min
1: CC(C)c1cncnc1N1CCCC2(C1)C(=O)N(C)c1ccccc12 (configuration not stated)
  4	2
2: Cc1[nH]cnc1CN1CCC(Cn2cc(CN(C)C)nn2)CC1
  -2	-5
3: CC(NC(=O)Cn1nnnc1CN1CCCCCC1)c1cnn(-c2ccccc2)c1 (configuration not stated)
  -7&8	-9&2
4: CCOCCOc1nc(-c2cccc(C(F)(F)F)c2)n(-c2ccc(NC(=O)c3cccs3)cc2)n1
  3	11
5: CCCCC(CC)C(=O)Nc1ccc(N2CCCC2)c(C(=O)NC(C)CC)c1 (configuration not stated)
  -6	12
6: CCOC(=O)c1c(NC(=O)C23CC4CC(CC(C4)C2)C3)sc2c1CCC2
  -8	-14
7: O=C(/C=C/c1cccc(Br)c1)N(C1CCCC1)C1CCS(=O)(=O)C1 (configuration not stated)
  -6	-7
8: CC1=C(C(=O)OC(C)C)C(c2sccc2C)NC(=O)N1 (configuration not stated)
  -6	-9
9: CCC/C=C/c1ccccc1C(=O)NCC
  10	8
10: CC1CN(C(=O)Cc2ccc(Cl)cc2)c2ccccc2NC1=O (configuration not stated)
  -4	-4
11: COc1ccc(C2CC(c3cccnc3)=Nc3nnnn32)c(OC)c1 (configuration not stated)
  10	8
12: Fc1ccccc1-n1cnn(CN2CCOCC2)c1=S
  2	0
13: O=C(c1ccc(CSc2nccs2)cc1)N1C2CCC1CC(Oc1cccc(C(F)(F)F)c1)C2 (configuration not stated)
  7	13
14: CCCCN(C(C)=O)c1c(CC)nc2ccc(C(=O)N3CCN(c4ccccc4)CC3)cn12
  -3	-8
15: CC(C)NC(=O)NC(=O)Cn1cc(C(F)(F)F)cc(Cl)c1=O
  1	0
16: CCOc1cc(C=C2SC(=S)N(c3ccc(OC)cc3)C2=O)ccc1O
  -4	-7
17: COCCC(=O)N1CCC(Oc2ccc(C(=O)NC3CCc4ccccc43)cc2)CC1 (configuration not stated)
  20	4
18: FC(F)(F)c1ccc(Oc2ccc3c(C4CC4)noc3n2)cn1
  9	4
19: COCC(=O)Nc1ccc(N2CCN(C(=O)NCCCc3ccccc3)CC2)nc1
  8	13
20: O=C(c1ccccc1-c1ncc[nH]1)N(Cc1ccco1)Cc1cccs1
  6	-10
21: CCOC(=O)N1CCN(C(c2ccc(OCC)cc2)C2Sc3nc(CC)nn3C2=O)CC1 (configuration not stated)
  -6	-13
22: CCCc1nc(NCc2cc(-c3ccc(F)cc3)on2)c2cnn(C)c2n1
  6	0
23: Cc1nc2ccc(C(=O)N(C/C=C/c3ccccc3)CCO)cc2[nH]1
  9	0
24: Cn1ccnc1CN(Cc1ccc(CO)o1)C1CC1
  3	1
25: CCCn1c(O)c(C=NCC(C)(C)N2CCOCC2)c(=O)[nH]c1=S
  5	1
26: CCOC(=O)C1=C(C)N=c2s/c(=C\c3ccc(OC(C)=O)c(OCC)c3)c(=O)n2C1c1ccc(OC)cc1 (configuration not stated)
  2	9
27: CC(C)C(=O)Nc1ccc(SCC(=O)OCc2ccccc2)nn1
  -3	-5
28: COCCC(=O)N1CCc2onc(C(c3ccccc3)c3ccccc3)c2C1
  10	3
29: c1ccc(CN[C@H]2C[C@H]3CCOC[C@@]3(c3ccccc3)C2)cc1
  1	10
30: CC1CCN(Cc2nnnn2CCCC(=O)NCCc2cscn2)CC1
  12	5

# In another format: results already given
13) O=C(c1ccc(CSc2nccs2)cc1)N1C2CCC1CC(Oc1cccc(C(F)(F)F)c1)C2 (configuration not stated)
  NPYLR7 ag: 7; NPYLR7 ag max-min: 13

14) CCCCN(C(C)=O)c1c(CC)nc2ccc(C(=O)N3CCN(c4ccccc4)CC3)cn12
  NPYLR7 ag: -3; NPYLR7 ag max-min: -8

15) CC(C)NC(=O)NC(=O)Cn1cc(C(F)(F)F)cc(Cl)c1=O
  NPYLR7 ag: 1; NPYLR7 ag max-min: 0

# Following part.
# Below each SMILES: NPYLR7 ag	NPYLR7 ag max-min
31: Fc1cccc(-c2cnnc(N[C@@H]3C[C@H]3c3ccccc3)n2)c1
  -4	-4
32: COCCCNC(=O)C(NC(=O)c1ccc(OC)cc1)C1CCN(C(=O)c2cccc(OC)c2)CC1 (configuration not stated)
  -4	-8
33: Cc1noc(C)c1C(=O)Nc1nc2ccc(SC(F)F)cc2s1
  9	2
34: Cc1ccccc1CCN1CCCC(CN(C)C(=O)c2ccc3ncccc3c2)C1 (configuration not stated)
  18	15
35: C=C(Br)CNC(=O)c1c(F)cccc1NC(=O)NCC
  3	-3
36: CCC1CCC2(CC1)NNC(=S)NN2
  -17	-20
37: CCN(C1=NC2CS(=O)(=O)CC2S1)c1ccc(C(C)C)cc1 (configuration not stated)
  8	5
38: CCCCN(CC(=O)N(Cc1cccn1C)CC(C)C)S(=O)(=O)c1ccc(OC)cc1
  -8	2
39: C=CCC(O)(CC=C)C(C)NC(=O)c1cc(COc2ccc(C)nc2)on1 (configuration not stated)
  2	-2
40: COCC(=O)Nc1ccc(-c2c(-c3ccc(N(C)C)cc3)nn(-c3cccc(F)c3)c2OC(C)=O)cc1
  -3	0
41: CCc1ccc(S(=O)(=O)c2cnc(SCC(=O)Nc3cccc(F)c3)[nH]c2=O)cc1
  9	9
42: COc1ccccc1NC(=O)NC(Cc1ccccc1)C(=O)Nc1nnc(-c2ccc3c(c2)OCO3)s1 (configuration not stated)
  2	7
43: CCCCc1ccc(C(=O)Nc2ccc(-n3nc(OCC(C)C)nc3-c3ccccc3F)cc2)cc1
  -12	-16
44: COC(=O)c1sccc1CN(C)Cc1csc(Br)c1
  8	7
45: CC1(C(=O)NS(=O)(=O)c2ccc(Cl)cc2)CCN1C(=O)CCc1ccccc1 (configuration not stated)
  2	2
46: COc1cc(OC)cc(C(=O)N(CC(=O)N(Cc2ccc(F)cc2)Cc2ccco2)CC2CCCO2)c1 (configuration not stated)
  4	2
47: CS(=O)(=O)N1N=C(c2ccc3c(c2)OCO3)CC1c1ccc(F)cc1 (configuration not stated)
  -2	-3
48: CN(C)c1ccc(C=NOCc2nnc(-c3ccc(F)cc3)o2)cc1
  6	8
49: COC(=O)[C@@H]1C[C@@H](NC(=O)CCn2nc(C)c(C)c2C)CN1C
  3	1
50: O=S1(=O)NC(=NC2CCN(c3ccccc3)C2)c2ccccc21 (configuration not stated)
  -20	-21
51: Cc1cc(C)cc(-c2ccc(-n3cncc3C(=O)NCc3ccc(Cl)cc3)cc2)c1
  10	5
52: Cc1ccc(-c2ccc(SCc3cccnc3)nn2)cc1
  0	-1
53: CCc1nnsc1C(=O)N[C@H]1C[C@@H](C(=O)OC)N(C)C1
  9	5
54: CC(C)C[C@@H](NC(=O)OCC1c2ccccc2-c2ccccc21)C(=O)O
  -12	-18
55: O=C(c1cnc2ccccc2c1)N1CCOC(Cc2ccccc2)C1 (configuration not stated)
  -10	-13
56: CCC(C)(CCCN)C1OCCO1 (configuration not stated)
  17	7
57: CCCS(=O)(=O)N1CCC(NC(=O)c2cc(Cl)cc(Cl)c2)CC1
  -2	-4
58: CC(C)c1noc(-c2ccnc(N3CCN(C)c4ccccc4C3)c2)n1
  0	-3
59: COc1ccc(C(=O)N(Cc2ccco2)Cc2cc(NC(=O)c3cccc(F)c3)ccc2N(C)C)cc1
  6	17
60: O=c1ccc(-c2cccc([N+](=O)[O-])c2)nn1Cc1c(F)cccc1Cl
  10	7

# In the list so far, six have two or more sulfur atoms:
# Below each SMILES: NPYLR7 ag	NPYLR7 ag max-min
13: O=C(c1ccc(CSc2nccs2)cc1)N1C2CCC1CC(Oc1cccc(C(F)(F)F)c1)C2 (configuration not stated)
  7	13
16: CCOc1cc(C=C2SC(=S)N(c3ccc(OC)cc3)C2=O)ccc1O
  -4	-7
33: Cc1noc(C)c1C(=O)Nc1nc2ccc(SC(F)F)cc2s1
  9	2
37: CCN(C1=NC2CS(=O)(=O)CC2S1)c1ccc(C(C)C)cc1 (configuration not stated)
  8	5
41: CCc1ccc(S(=O)(=O)c2cnc(SCC(=O)Nc3cccc(F)c3)[nH]c2=O)cc1
  9	9
44: COC(=O)c1sccc1CN(C)Cc1csc(Br)c1
  8	7

# Ordered by molecular weight (smallest number first): part of the list above
# Below each SMILES: NPYLR7 ag	NPYLR7 ag max-min
52: Cc1ccc(-c2ccc(SCc3cccnc3)nn2)cc1
  0	-1
49: COC(=O)[C@@H]1C[C@@H](NC(=O)CCn2nc(C)c(C)c2C)CN1C
  3	1
43: CCCCc1ccc(C(=O)Nc2ccc(-n3nc(OCC(C)C)nc3-c3ccccc3F)cc2)cc1
  -12	-16
32: COCCCNC(=O)C(NC(=O)c1ccc(OC)cc1)C1CCN(C(=O)c2cccc(OC)c2)CC1 (configuration not stated)
  -4	-8
59: COc1ccc(C(=O)N(Cc2ccco2)Cc2cc(NC(=O)c3cccc(F)c3)ccc2N(C)C)cc1
  6	17
40: COCC(=O)Nc1ccc(-c2c(-c3ccc(N(C)C)cc3)nn(-c3cccc(F)c3)c2OC(C)=O)cc1
  -3	0

# (continued)
# Below each SMILES: NPYLR7 ag	NPYLR7 ag max-min
61: Cc1cc(C(=O)NCCc2ccc(Cl)cc2)c(C)o1
  -1	0
62: CCS(=O)(=O)Oc1cccc(CN(C(=O)c2ccc(OC)cc2OC)C(C)C)c1
  -7	-1
63: CCCCOC(=O)N(CCC)OC(=O)Nc1ccccc1
  4	6
64: c1ccc(N2CCN(C3CCCN(C4CCCCCC4)C3)CC2)cc1 (configuration not stated)
  -3	-8
65: CN(Cc1ccccc1)c1oc(-c2ccc(COc3ccccc3)o2)nc1C#N
  0	18
66: COC(=O)C(NC(=O)c1cccnc1)c1cccc(C)c1 (configuration not stated)
  5	3
67: CN(C)C=Nn1cnc2sc3c(c2c1=O)CCCC3
  2	-1
68: COCC(C)NC(=O)CC1CSc2nc(C(C)C)cc(=O)n21 (configuration not stated)
  -1	-2
69: CCCCc1noc(CN2CCCC2C2CCCN2Cc2ccccc2)n1 (configuration not stated)
  6	6
70: CN1C[C@]23C=C[C@H](O2)[C@H](C(=O)NC2CCC(n4cnnc4)CC2)[C@@H]3C1=O (some centres not stated)
  27	15
71: CCS(=O)(=O)Oc1cc(CN(CCOC)C(=O)c2cccs2)ccc1OC
  20	13
72: Cn1c(=O)c2c(ncn2CCn2cnc3c2c(=O)n(C)c(=O)n3C)n(C)c1=O
  -1	3
73: CN(Cc1nccn1Cc1ccccc1)C(=O)CC1COCCN1 (configuration not stated)
  2	1
74: CCOC(=O)C(C(C)=O)C1CCS(=O)(=O)C1 (configuration not stated)
  0&2	-2&1
75: COc1cc(C(=O)N(C)CC(=O)NC(C)(C)C)ccc1OCc1ccc(Cl)cc1
  1	2
76: Cc1ccc(Cl)cc1NC(=O)C(C)OC(=O)CC1C=CS(=O)(=O)C1 (configuration not stated)
  -3	-1
77: Cc1ccccc1-c1cnnc(NCC2CCCN(c3ncccn3)C2)n1 (configuration not stated)
  8	4
78: O=C1NC2(CCN(C(=O)Cc3cccs3)CC2)Nc2cccc(Cl)c21
  -1	-3
79: O=C(O)C1(O)CCN(c2noc(-c3ccccc3)n2)CC1
  4	-1
80: Cc1nc(C(=O)N(C)CCC=C2c3ccccc3CCc3ccccc32)cs1
  -8	-14
81: CCN1CCN(C(=O)c2ccc(CSc3nnc(-c4ccco4)n3-c3ccc(OC)cc3)cc2)CC1
  16	17
82: O=C(Nc1cccc(C(=O)N2CCCC2)c1)c1ccc(-c2ccco2)[nH]c1=O
  3	2
83: C(=Nc1ccc2c(c1)OCO2)c1ccc2ncccc2c1
  6	6
84: c1csc(-c2nnn(CN3CCCC(c4nc5ccccc5s4)C3)n2)c1 (configuration not stated)
  -2	-5
85: COc1ccc(-n2c(SCCCCC(=O)N3CCN(C(=O)c4cccc(OC)c4)C(C)C3)nnc2-c2ccco2)cc1 (configuration not stated)
  11	15
86: CC(C)S(=O)(=O)Oc1cccc(CNCc2ccc(F)cc2)c1
  10	10
87: COc1ccccc1Cn1c(C(=O)N2CCN(C(=O)c3ccco3)C(C)C2)cc2ccsc21 (configuration not stated)
  34	30
88: O=C(NCCn1ncc2c(=O)n(Cc3ccccc3)cnc21)c1cccs1
  -3	-9
89: COCCN1CCCC(O)(CNCc2c(F)cccc2Cl)C1=O (configuration not stated)
  -1	1
90: CCOC(=O)CSc1nnc(NC(=O)COc2ccccc2)s1
  1	7
91: Cc1nc(NS(=O)(=O)c2ccc(Br)s2)c2c3c(sc2n1)CCC3
  8	1
92: Cc1c(Br)c(C(F)(F)F)nn1CC(=O)N1CCCC1
  -2	-6
93: COc1ccccc1C(=O)N1CCN(c2nc(CCc3ccccc3)nc3sc(C)c(C)c23)CC1
  -2	1

# Some of the compounds tested. The share of hits here may be higher or lower than overall.
